Resorufin fluor – resorufin region autofluorescence. max dye-equivalent concentration, M. 0.04% of 59,000 active. Compound fluorescence, resorufin region 547/598 nm, buffer; stronger effect = higher value; active = above 10 nM dye equivalent; inconclusive = 1 to 10 nM; inactive = 1 nM or less; a few of its hits are not listed in these tables; note: highest value over a series up to 38 µM
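Compounds in 100 mM Tris, pH 8.0, incubated 15 min at room temperature, then fluorescence read at 547 nm excitation/598 nm emission. Signal converted to dye-equivalent concentration via an on-plate six-point resorufin standard curve, per compound concentration.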
A647 fluor – compound fluoresces in the A647 spectral region; 59,000 tested, under 10 active; max dye-equivalent concentration, M; Compound fluorescence, A647 channel (570/671 nm), Tris buffer; AID 592; active means above 1 µM dye equivalent; inconclusive means 0.1 to 1 µM; inactive means 0.1 µM or less;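 note: values scaled relative to a standard on each plate; highest value over a series up to 38 µM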
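Compound fluorescence was measured in 100 mM Tris buffer, pH 8.0, after 15 min at room temperature, using 570 nm excitation and 671 nm emission filters. Signal was normalized to a per-plate Alexa 647 standard curve and expressed as dye-equivalent concentration at each compound concentration.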
A488 autofl – compound fluoresces in the A488 spectral region; 0.1% of 59,000 active; AID 591; max dye equivalency, M; compound autofluorescence, A488 spectral region, dye equivalency; stronger effect = higher value; active = above 10 nM dye equivalent; inconclusive = 1 to 10 nM; inactive = 1 nM or less; about half of its hits are not listed in these tables;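 note: highest value over a series up to 38 µM; compound alone in buffer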
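Compounds pin-transferred into 100 mM Tris buffer, pH 8.0, incubated 15 min at room temperature, then imaged with 480 nm excitation/540 nm emission filters. Fluorescence converted to Alexa 488 dye-equivalent concentration via an on-plate six-point A488 standard curve.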
AID923 – qHTS Assay for Allosteric/Competitive Inhibitors of Caspase-1: Spectroscopic Profiling in AFC Spectral Region; compound fluorescence, AFC spectral region (405/520 nm); almost no hit is shown here; Potency, µM (doses to about 57.5 µM), for the others: top-dose fluorescence increase, most hits filed as activators; 1.1% of 75,000 active; AID 923, 2007; active = well fitted activation curve with a large enough effect; inconclusive = small, poorly fitted or top-dose-only effect;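 note: potency is the fitted concentration of half-maximal effect; 0% is about no effect; scaled to a free AFC standard on each plate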
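Baseline compound fluorescence (AFC region, 405 nm ex/520 nm em) taken from the intercept of kinetic reads with 50 nM caspase-1 and 5 uM Ac-WEHD-AFC; normalized to an on-plate AFC standard curve; compounds titrated up to 57 uM.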
TSHR ag – TSH receptor (human) agonism; 0.48% of 73,000 active; Potency, µM (highest dose often 57.1 µM), inactives show at the top dose activation, actives largely listed as activators; HEK293-CNG-TSHR cells (CNG channel as cAMP sensor), membrane potential dye, cAMP; AID 926; P16473; active = well fitted activation curve of enough size with the parental cells flat; inconclusive = any curve in the parental cells; inactive = parental cells flat and receptor cells flat or falling; note: potency is the fitted concentration of half-maximal effect; % of control where 0% means no effect; weak receptor curves with flat parental cells got no call and are not listed
Target sequence (P16473 whole entry, looked up): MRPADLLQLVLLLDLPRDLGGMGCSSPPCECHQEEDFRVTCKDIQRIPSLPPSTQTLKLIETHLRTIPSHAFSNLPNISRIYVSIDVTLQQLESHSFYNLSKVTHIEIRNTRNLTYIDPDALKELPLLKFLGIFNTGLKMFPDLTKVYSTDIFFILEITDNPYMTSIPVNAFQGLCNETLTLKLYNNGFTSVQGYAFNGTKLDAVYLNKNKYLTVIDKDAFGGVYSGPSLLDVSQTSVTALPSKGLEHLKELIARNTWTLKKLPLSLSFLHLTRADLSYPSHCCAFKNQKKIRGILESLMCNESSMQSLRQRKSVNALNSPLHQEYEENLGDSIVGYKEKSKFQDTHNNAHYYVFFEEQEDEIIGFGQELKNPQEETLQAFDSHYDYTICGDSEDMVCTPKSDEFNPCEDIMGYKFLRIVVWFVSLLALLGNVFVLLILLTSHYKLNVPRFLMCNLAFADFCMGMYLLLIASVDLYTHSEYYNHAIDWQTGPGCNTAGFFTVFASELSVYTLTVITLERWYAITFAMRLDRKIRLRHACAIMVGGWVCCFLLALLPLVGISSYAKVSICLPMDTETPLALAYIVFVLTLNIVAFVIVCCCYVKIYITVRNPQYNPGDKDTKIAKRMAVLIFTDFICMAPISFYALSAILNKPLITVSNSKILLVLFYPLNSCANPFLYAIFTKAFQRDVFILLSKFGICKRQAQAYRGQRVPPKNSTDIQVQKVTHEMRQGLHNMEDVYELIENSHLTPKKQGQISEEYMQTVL
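cAMP rise detected as CNG-channel membrane depolarization by fluorescent dye (emission 590 nm), 30 min after compound, following 60 min dye loading containing 100 uM RO 20-1724 at room temperature. Cells: TSHR/CNG HEK 293, with parental CNG HEK 293 as control.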
* marks the source's active call; other numbers are inactive results; i = inactive; u = inconclusive; x = not tested or not shown; [ ] = remark or other dose. These rows are one share of the data; rates above refer to the full screens.

Molecule	Resorufin fluor	A647 fluor	A488 autofl	AID923	TSHR ag
O=C(c1ccco1)N1CCN(S(=O)(=O)c2ccc(S(=O)(=O)NC3CCCC3)cc2)CC1	i	1.03e-08	i	0.9%	u
Cn1c(/C(C#N)=C(\O)COc2ccc3ccccc3c2)nc2ccccc21	i	5.2e-09	i	-1.3%	u
Cc1ccc2cc(C#N)c(SCC(=O)NCc3ccco3)nc2c1	i	1e-09	i	6.2%	u
CCOC(=O)c1ccccc1NC(=O)Cn1cnc2c(nnn2-c2ccc(C)cc2)c1=O	x	x	x	-2.8%	3.0%
O=C(NCc1ccccn1)Nc1ccc(Cl)c(Cl)c1	i	2e-09	i	-1.7%	-12.9%
O=C(OCCOCCN=C1NS(=O)(=O)c2ccccc21)c1ccncc1	i	1e-09	i	1.6%	6.3%
COc1ccccc1C(=O)N(Cc1cccs1)C1CCS(=O)(=O)C1 (centres undefined)	i	1e-09	i	1.5%	5.0%
C=CCc1cc(C)cc(C)c1OCCn1cncn1	i	2.64e-08	i	-0.1%	12.0%
CCc1nnc(NC(=O)CCC(=O)N2CCCC2)s1	i	5.4e-09	i	0.1%	0.8%[11.4 µM]
O=c1c2[nH]c3ccccc3c2ncn1CCN1CCCCC1	i	7.5e-09	i	0.7%	6.3%
O=C1[C@H]2[C@H]3[C@H](O)[C@H](O)C/C(=N/OC[C@@H](O)COCc4ccco4)[C@@H]3CC[C@@H]2C(=O)N1Cc1ccccc1	x	x	x	-0.9%[11.5 µM]	-10.2%[11.4 µM]
COc1ccc(CCN2C(=O)c3ccccc3C2(O)c2ncc[nH]2)cc1OC (centres undefined)	x	x	x	3.2%	-1.0%
COC(=O)c1[nH]c2cccc(OC)c2c1NC(=O)CCN1CCN(c2ccccc2OC)CC1	i	1e-09	i	0.1%	0.7%
CCS(=O)(=O)Nc1ccc(-c2nnc(SCC(=O)c3cccc(OC)c3)o2)cc1	i	1e-09	i	2.1%	u
CCOc1ccc(C2NC(=O)c3n[nH]c(C)c32)cc1 (centres undefined)	x	x	x	-1.6%	2.3%
COc1ccc(NS(=O)(=O)c2ccc(C)c(C(=O)O)c2)cc1	i	1e-09	i	-0.9%	-0.9%
O=C1CCc2cc(S(=O)(=O)N3CCC(C(=O)NC4CCCC4)CC3)ccc2N1	x	x	x	0.2%	2.6%
CC(C)OC(=O)CSc1nnc(-c2cnccn2)n1Cc1ccco1	i	2.18e-08	i	-0.2%	19.2%
CCOc1cc(C(=O)N(C)Cc2cc3ccccc3[nH]c2=O)cc(OCC)c1OCC	i	8.5e-09	i	-3.2%	7.9%
COC(=O)Cn1ccc(N(C)C)c(C#N)c1=O	i	5e-09	i	-0.2%	-1.6%
Cc1cc(C)nc(Nc2ccccc2Br)n1	i	5.71e-08	i	-1.4%	-5.8%
Cn1c(=O)c2[nH]c(/N=N\N3CCN(CCO)CC3)nc2n(C)c1=O	i	4.2e-09	i	0.2%[11.5 µM]	14.3%[11.4 µM]
Fc1ccccc1	x	x	x	0.7%	4.2%
Cc1cccn2c(=O)c3cc(C#N)c(=O)n(-c4c(C)n(C)n(-c5ccccc5)c4=O)c3nc12	i	1e-09	i	5.5%	3.4%
O=C(CSc1nc2cc(S(=O)(=O)N3CCOCC3)ccc2o1)NC1CCCc2ccccc21 (centres undefined)	i	1.6e-09	i	-0.5%	22.1%
Cc1cc(C(=O)OCC(=O)Nc2ncc(C(F)(F)F)cc2Cl)c(C)o1	i	1e-09	i	6.2%	9.6%
Nc1ncnc2c1CCC2	i	1e-09	i	0.8%	0.8%
O=C(O)C1CC=CCC1C(=O)Nc1cc(Cl)ccc1Cl (centres undefined)	i	1e-09	i	0.4%	2.9%
COC(=O)c1sccc1NC(=O)Cn1nnc(-c2ccc(C)cc2)n1	i	2.09e-08	i	0.0%	u
Cc1cc(Cl)ccc1NC(=O)CSc1nnc(Cc2cccs2)n1Cc1ccco1	i	5.7e-09	i	2.1%	u
CCCC1=C(C(=O)OCC)C(c2ccc(N(C)C)cc2)n2ncnc2N1 (centres undefined)	i	1e-09	i	0.1%	3.4%
CCOC(=O)c1ccccc1NC(=O)CN1C(=O)c2ccccc2S1(=O)=O	i	3.73e-08	i	-2.4%	11.8%
COc1ccccc1N(CC(=O)N1CCCCC1)S(=O)(=O)c1ccccc1	i	1e-09	i	-0.1%	u
CCOc1ccc(C2c3c(oc4ccccc4c3=O)C(=O)N2c2ccc(C)cn2)cc1OC (centres undefined)	x	x	x	1.0%	-10.1%
CCc1cc(C(=O)OC)c(N2C(=O)C3C4C=CC(C4)C3C2=O)s1 (centres undefined)	i	2.9e-09	i	-0.5%	7.94µM*
O=C(CN1C(=O)C2CC=CCC2C1=O)Nc1nccs1 (centres undefined)	i	4.8e-09	i	2.5%	u
CS(=O)(=O)N(CC(=O)NCCSc1ccccc1)c1ccc2c(c1)OCO2	i	6.2e-09	i	-0.8%	1.4%
O=C(C1CCC(CNc2c(N3CCCCC3)c(=O)c2=O)CC1)N1CCc2ccccc2C1 (centres undefined)	x	x	x	-0.6%	-5.0%
COC(=O)c1ccc(N2C(=O)CC(NCc3ccccc3)C2=O)cc1 (centres undefined)	i	1e-09	i	0.1%	-1.2%
COC(=O)Nc1c(C)nn(Cc2ccccc2C)c1C	i	1e-09	i	-5.0%	x
O=C(Nc1ccc(N2CCOCC2)cc1)c1cc2ccccc2o1	x	x	x	5.0%	-5.4%
Cc1cc(=O)n2nc(N3CCCC3C(=O)NCc3ccccn3)sc2n1 (centres undefined)	i	6.6e-09	i	0.2%	-2.8%[11.4 µM]
COc1ccc(C(=O)N2CCC[C@@]3(CCN(c4cccc(-c5ccccc5)c4)C3)C2)cc1	i	2.86e-08	i	-3.0%	-0.1%
Cc1csc(NC(=O)c2ccoc2C)n1	i	1e-09	i	-1.9%	-11.5%
CCCc1n[nH]c2c1/C(=N/O)CC(c1ccccc1)C2 (centres undefined)	i	1e-09	i	-1.4%	1.6%
CN(C1CCS(=O)(=O)C1)S(=O)(=O)c1ccc(C2CCCCC2)cc1 (centres undefined)	i	1.3e-08	i	1.2%	19.0%
CC#C[C@]1(O)CC[C@H]2[C@@H]3CCC4=CC(=O)CCC4=C3[C@H](c3ccc(N(C)C)cc3)C[C@@]21C	x	x	x	-1.6%	-0.4%
CCOc1ccc(N(CC(=O)NCc2ccccc2OC)S(C)(=O)=O)cc1	i	1.9e-08	i	-0.1%	-0.8%
O=C(Nn1cnnc1)C(Sc1ccccc1)c1ccccc1 (centres undefined)	i	2.49e-08	i	0.1%	-28.0%
CC(C)COc1ccc(C2NC(=O)NC2=O)cc1 (centres undefined)	i	2.06e-08	i	-0.2%	0.5%
Cc1nc2ccccc2c(=O)n1/N=C/c1cccnc1	x	x	x	-0.3%	5.2%
CC12CC(NC(=O)N1c1ccc(C(=O)N3CCN(c4ccccn4)CC3)cc1)c1ccccc1O2 (centres undefined)	i	4.3e-09	i	-1.9%	3.4%
COC(=O)c1ccccc1NC(=O)C(C)Oc1ccccc1 (centres undefined)	i	7.4e-09	i	-0.8%	u
COc1cc(CN2CCCCC2)cc2cc(C(=O)O)c(=O)oc12	i	1e-09	i	-3.2%[11.5 µM]	1.3%[11.4 µM]
CCOc1ccc(N2CC(=O)Nc3ccccc3NCC2=O)cc1	i	1e-09	i	0.5%	-2.7%
Cn1cc(C(=O)NCCc2ccccc2)c(=O)c2cc(S(=O)(=O)N3CCOCC3)ccc21	i	4.34e-08	i	1.6%	-2.0%
N#CC1=C(N)Oc2n[nH]c(-c3cccs3)c2C1c1ccoc1 (centres undefined)	i	1.27e-08	i	3.8%	10.1%
O=C(COc1ccccc1Cl)OCC(=O)N1CCN(S(=O)(=O)c2ccccc2)CC1	i	1e-09	i	-1.0%	1.7%
CCc1ccc(-c2nc(CSCC(=O)N3CCN(c4ccccn4)CC3)c(C)o2)cc1	i	8e-09	i	-0.5%	u
CN(C)S(=O)(=O)c1ccc(C(=O)OCCCN=C2NS(=O)(=O)c3ccccc32)cc1	x	x	x	-0.1%	-6.3%

(next part)
Molecule	Resorufin fluor	A647 fluor	A488 autofl	AID923	TSHR ag
CC(=O)Nc1cccc(C(=O)Nc2ccccc2C(=O)O)c1	i	2.75e-08	i	-1.0%	4.4%
NC(=O)C1CCCN(S(=O)(=O)c2ccc(Br)cc2)C1 (centres undefined)	i	3.5e-09	i	-0.3%	1.2%
COc1cc(C(=O)OC(C)C(=O)N2CCc3ccccc3C2)ccc1OCC(=O)N1CCOCC1 (centres undefined)	i	2.94e-08	i	0.0%	7.1%
CN(C)Cc1ccccc1-c1cc(NC2CC2)ncn1	i	1.2e-09	i	1.2%	3.5%
CCN1C(=O)[C@H]2[C@H]3[C@H](O)[C@H](O)C/C(=N/O[C@@H](C)CN4CCCCc5nc(C)c(C)cc54)[C@@H]3CC[C@@H]2C1=O	x	x	x	1.4%[11.5 µM]	5.3%[11.4 µM]
Cc1onc(-c2c(Cl)cccc2Cl)c1C(=O)NCc1ccco1	i	4.3e-09	i	-3.4%	4.8%
Cc1cc(C(=O)NCCCN2CCN(C3CCCCC3)CC2)n(-c2ccccc2)n1	x	x	x	2.5%	24.8%
N#CC(C(=O)NC1CCCCC1)c1nc2ccccc2nc1N1CCOCC1 (centres undefined)	i	4.45e-08	i	3.0%	3.0%
COc1cc(-c2nnc(COc3ccc4cc(Br)ccc4c3)o2)cc(OC)c1OC	x	x	x	0.6%	21.3%
CCOc1ccc(C(=O)CN2CCN(S(=O)(=O)c3ccc(Cl)cc3)CC2)cc1	i	2.57e-08	i	2.9%	12.2%
Nc1ccnn1Cc1cccnc1	i	1e-09	i	-0.7%	-4.4%
CCOC(=O)N1CCC(NC(=O)c2cc(C(=O)NC3CCCC3)ccc2CO)CC1	x	x	x	-0.2%	5.7%
Cc1ccc(NC(=O)CCSc2nnc(-c3ccco3)o2)cc1	i	7.3e-09	i	1.8%	2.5%
Cc1ccc(C)c(NC(=O)CN(C)S(=O)(=O)c2ccccc2)c1	i	3.8e-09	i	4.0%	1.7%
COCCNC(=O)C(c1ccccc1)N(C(=O)Cn1nnc2ccccc21)c1cccnc1 (centres undefined)	i	1.71e-08	i	3.1%	2.2%
COc1ccc(C2(CCN)CC(C)N(C)CC2C)cc1 (centres undefined)	i	4.86e-08	i	5.7%	1.2%
CC(C)C[C@H]1C(=O)N2CCC[C@@H]2[C@]2(O)O[C@](NC(=O)[C@@H]3C=C4c5cccc6[nH]c(Br)c(c56)C[C@H]4N(C)C3)(C(C)C)C(=O)N12	x	x	x	2.4%	0.1%
Cc1oc2ncnc(N)c2c1C	i	3.5e-09	i	4.3%	1.9%
Fc1ccc2c(Cl)c(-c3nnc(-c4cccs4)o3)sc2c1	i	1e-09	i	0.5%	u
N#Cc1nc(-c2ccc(OCc3ccc(Cl)cc3)cc2)oc1N1CCOCC1	i	2.2e-09	i	-0.1%	8.1%
CC1CN(c2cc(=O)n(-c3cccc(Br)c3)c(=O)[nH]2)CC(C)O1 (centres undefined)	x	x	x	-0.8%	-2.2%

Screening results as filed in PubChem.
